# VDR inh = vitamin D3 receptor (human) inhibition | VDR-SRC2-3 peptide fluorescence polarization, 2 h | Potency, µM, for the others: max response, negative = inhibition, hits mostly inhibitors | hit rate 0.93% among 400,000 | AID 504847; active means well fitted inhibition curve with a large enough effect; further: series mostly up to about 120 µM
# Target sequence (P11473 whole entry, looked up): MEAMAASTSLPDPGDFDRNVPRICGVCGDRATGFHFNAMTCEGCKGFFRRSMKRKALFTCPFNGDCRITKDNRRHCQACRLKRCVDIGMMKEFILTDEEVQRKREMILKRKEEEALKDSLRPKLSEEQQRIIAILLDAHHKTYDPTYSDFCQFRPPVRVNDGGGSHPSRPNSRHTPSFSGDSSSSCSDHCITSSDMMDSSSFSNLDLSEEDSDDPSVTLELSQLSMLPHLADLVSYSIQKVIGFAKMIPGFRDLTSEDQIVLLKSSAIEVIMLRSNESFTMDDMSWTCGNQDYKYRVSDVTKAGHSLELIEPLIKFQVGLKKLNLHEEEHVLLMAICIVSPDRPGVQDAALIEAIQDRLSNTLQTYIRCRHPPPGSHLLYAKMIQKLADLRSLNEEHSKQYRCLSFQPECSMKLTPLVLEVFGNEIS
#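 Reagent solutions, kept cold and dark, are dispensed first; compounds are then pinned in at 23 nl, plates briefly spun, and incubated 2 h at ambient temperature. Inhibition of VDR–SRC2-3 peptide binding is read by fluorescence polarization.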
# * hit, by the source's call; [ ] = remark or other dose. On the % scale 0 is the no-effect control and ±100 the full control effect; potency means the concentration at half of the fitted maximal effect. Only part of the results is shown; rates above refer to the full screens.
VDR inh	structure
-12%	O=[N+]([O-])c1ccc(/C=N/N2CCN(c3ccncc3S(=O)(=O)N3CCCCC3)CC2)cc1
-8%	COc1ccc(C(=O)NNC(=O)c2cc3cc([N+](=O)[O-])ccc3oc2=O)cc1OC
-4%	O=C(Nc1ccc2nc(-c3ccccn3)[nH]c2c1)C1CCCCC1
-7%	Cc1ccc(Oc2ccc(NC(=O)Cn3ccsc3=N)cc2)cc1
-7%	Cc1c(C)c2ccc(OCC(=O)N3CCC(C(=O)O)CC3)c(C)c2oc1=O
30%[activator]	COc1ccc(NC(=O)c2nnn(Cc3nc(-c4cc(Br)ccc4OC)oc3C)c2C)cc1
-16%	Cc1ccccc1NC(=O)C1CCCN(c2nnc(N3CCCC3=O)s2)C1 (centres undefined)
15%	Fc1cnc(Cl)nc1N1CCN(c2ccccc2)CC1
-5%	Nc1nonc1-c1nc2ccccc2n1Cc1ccc(F)cc1
9%	C=CCN1C(=NC(=O)CC)SC2CS(=O)(=O)CC21 (centres undefined)
8%	COc1ccc(CNC(=O)C2CCCN(S(=O)(=O)c3ccc4c(ccn4C)c3)C2)c(OC)c1 (centres undefined)
-1%	Cc1cccc(NC(=S)N(Cc2ccco2)C(C)c2cccs2)c1 (centres undefined)
-13%	Cc1ccc(C(=O)OCC(=O)NCc2ccc(Cl)cc2Cl)o1
-3%	CCOc1ccc(NC(=O)CSc2oc(-c3ccco3)nc2S(=O)(=O)c2ccc(Cl)cc2)cc1
2%	NC(=O)CC(NC(=O)Cc1ccc(Br)cc1)c1ccc(NCCN2CCCC2)c([N+](=O)[O-])c1 (centres undefined)
9%	COc1cc2c(C(=O)N3CCN(C)CC3)c(C)n(-c3ccccc3)c2cc1Br
4%	CC(=O)c1c(C(C)=O)c(C)n(-c2nc(-c3cccs3)c(C)s2)c1C
1%	O=C(Nc1ccc(Cl)cc1C(F)(F)F)c1ccccc1
13%	CC(C)Cc1ccc(C(C)C(=N)N)cc1 (centres undefined)
-18%	O=C(CSc1nnc(CNC(=O)c2c(F)cccc2Cl)o1)Nc1ccc2c(c1)OCO2
5%	CCc1nn(-c2ccccc2)c(N)c1-c1ccc(OC)c(OC)c1
-14%	Cc1ccc(Nc2c(F)c(F)c(F)c(F)c2C(=O)O)c(C)c1
-12%	O=C(CSc1ccccn1)Nc1cccc(S(=O)(=O)N2CCCC2)c1
-2%	CC(C)c1nc(NCC2CCCO2)c(C#N)c2c1COC(C)(C)C2 (centres undefined)
22%	Cc1nc(C)c(C(=O)C2=C(O)C(=O)N(CCN3CCOCC3)C2c2cccs2)s1 (centres undefined)
5%	COc1ccc(S(=O)(=O)N2CCOCC2)cc1NC(=O)COC(=O)C1COc2ccccc2O1 (centres undefined)
0%	COc1ccccc1C(=O)NCC(=O)NNC(=O)C1COc2ccccc2O1 (centres undefined)
-3%	CCOc1ccc(-c2cc(C(F)(F)F)c(C#N)c(SCC(=O)Nc3ccccc3)n2)cc1
23%	Cc1ccc(NC(=O)C2CC(c3ccc(F)cc3)=NO2)cc1 (centres undefined)
12%	CN(Cc1cc(=O)n2ccsc2n1)Cc1nc2ccccc2c(=O)[nH]1
5%	COc1ccccc1NC(=O)c1cn(C)c(=O)c2cc(OC)c(OC)cc12
-14%	O=C(NC(=S)Nc1ccc(CN2CCOCC2)cc1)c1ccc(-c2ccc(Cl)cc2)o1
7%	Cc1ccc(Cn2c(SCC(=O)NCc3ccc(Cl)cc3)nc3ccsc3c2=O)cc1
4%	COc1ccc(-c2nn3c(=O)cc(CN4CCN(S(=O)(=O)c5ccc(C)cc5)CC4)nc3s2)cc1
-17%	Cn1cccc1C(=O)C(=O)Nc1ccccc1C(F)(F)F
-14%	COc1cccc(-c2c(NC(C)=O)n(C)c3ccccc3c2=O)c1
-8%	C/C(CC(=O)Nc1ccc2ccccc2c1)=N\NC(=O)c1cnccn1
-8%	CC1Sc2ccc(S(=O)(=O)N3CCC(C(=O)NCc4ccco4)CC3)cc2NC1=O (centres undefined)
7%	Cc1cc(C)nc(N/N=C/c2ccccc2OCc2ccc([N+](=O)[O-])cc2)n1
-20%	Cc1ccc(Cl)cc1Nc1nc(-c2sc(NC(=O)c3ccco3)nc2C)cs1
-18%	COc1cc(/C=N/N(C)c2ccccc2)ccc1O
14%	Cc1ccc(OCCn2nnc3ccccc32)cc1C
-8%	CN(C)S(=O)(=O)c1ccc(Cl)c(C(=O)OCC(=O)NC(=O)c2cccn2C)c1
14%	COc1ccc(C2Nc3ccccc3-c3cc(C)nn32)c(OC)c1 (centres undefined)
19%	COc1cccc(CNC(=O)CCc2c(C)nn(-c3ccc(N4CCOCC4)nn3)c2C)c1
-4%	CCC(=O)N1CCc2cc(S(=O)(=O)N3CCN(c4cc(C)ccc4C)CC3)ccc21
6%	COc1ccccc1NC(=O)c1ccc(Br)o1
11%	Cc1cc(N2CCOCC2)nc2ccc(Cl)cc12
13%	CCCCOc1ccc(NC(=S)Nc2cc(C)nc(SCCCC)n2)cc1
-5%	COc1ccc(/C(=C\Nc2ccc(C)c(C)c2)C(C)=O)cc1OC

# (more compounds)
VDR inh	structure
-2%	CCC(=O)NC(=S)Nc1ccc(N2CCN(C(=O)c3ccc(Cl)cc3)CC2)cc1
69%[activator]	COc1ccc(Nc2c3c(nc4ccc(NC(=O)/C=C/c5cccc(OC)c5OC)cc24)CCCC3)cc1OC
12%	CCCCNC(=S)N1CCN(c2ccc(C(C)=O)cc2)CC1
4%	CN1CCN(c2ncnc3c2c(-c2ccccc2)cn3-c2ccc(F)cc2)CC1
3%	CCOc1ccc(CCNC(=O)COC(=O)CCC(=O)c2cccs2)cc1OCC
-3%	CCCCC(=O)N1CCc2cc(OC)c(OC)cc2C1COc1ccc(OC)cc1 (centres undefined)
25%	COc1cc2c(cc1NC(=S)Nc1cccc(C)c1)oc1ccccc12
5%	CCn1c2ccccc2c2nnc(N3CCN(c4ccc(OC)cc4)CC3)nc21
-3%	CN(C)S(=O)(=O)n1cnc(-c2ccccc2)c1-c1ccccc1
-5%	O=C(CN1C(=O)c2ccccc2S1(=O)=O)Nc1cc(S(=O)(=O)N2CCCCC2)ccc1Cl
-17%	O=C(Nc1ccc(Cl)c(Cl)c1)N(CCCN1CCOCC1)Cc1cccs1
-15%	O=C(NCc1ccc(F)cc1)N1CCc2ccccc2C1
-3%	COc1ccc(CN(C)CC(=O)NC(=O)NC2CCCCC2)cc1
0%	CC1(C)CC2CC(C)(CN2C(=O)COC(=O)c2n[nH]c(=O)c3ccccc23)C1 (centres undefined)
-3%	CN(C)c1ncc2nc(-c3cc(F)cc(F)c3)c(=O)n(CCc3ccccc3)c2n1
21%	N#CCSc1ncnc2sc3c(c12)CCC3
-1%	CC1CCN(S(=O)(=O)c2cc(F)ccc2CN2C(=O)c3cccnc3C2=O)CC1
-4%	Cc1ccccc1Nc1cccc2nonc12
19%	COc1ccc(Cn2c(SCC(=O)N(C)Cc3ccccc3)nc3ccccc32)cc1
5%	CCCOC(=O)c1cccc(Nc2nc(C(=O)OCC)nc3ccccc23)c1
19%	CC(C)Oc1ccc(CNC(=O)CN2C(=O)CCn3nc(-c4cn(C)c5ccccc45)cc32)cc1
-16%	Nc1nnnn1CC(=O)N/N=C/c1cc([N+](=O)[O-])ccc1O
8%	N#CC1(NC(=O)CN2C(=O)NC3(CCCCCC3)C2=O)CCCCC1
-6%	CCOC(=O)c1[nH]c2ccccc2c1NC(=O)CC(C)(C)C
-10%	COc1ccc(N2CCN(C(=O)c3ccc(NS(=O)(=O)c4ccc(F)cc4)cc3)CC2)cc1
7%	O=C(Nc1ccccc1)c1cc(N2CCOCC2)nc2ccccc12
-3%	Cc1cc(Cl)ccc1OC(C)C(=O)NCCCn1ccnc1 (centres undefined)
-14%	O=C(c1cc2ccccc2oc1=O)N1CCN(c2ccc(Cl)cc2)CC1
-21%	COc1cccc(NC(=O)CSc2nccn(-c3ccc4c(c3)OCCO4)c2=O)c1
5%	COc1ccc(C(=O)OCC(=O)NCc2ccco2)cc1OC
3%	CS(=O)(=O)N1CCC2(CCCN(Cc3ccc(C#N)cc3)C2)CC1
9%	OCCCNC(c1ccccc1)c1ccc(O)cc1 (centres undefined)
15%	CN=C1SC(C(=O)Nc2ccccc2Cl)CC(=O)N1c1ccc(OC(F)(F)Cl)cc1 (centres undefined)
-13%	CC(=O)N/N=C/c1ccc(OCCOc2ccc(Br)cc2)cc1
0%	COc1cc2c(cc1OC)C(COc1ccccc1OC)N(C(=O)C(C)(C)C)CC2 (centres undefined)
-4%	Cc1nc2ccccc2nc1SCC(=O)c1ccccc1
1%	Fc1ccc(-c2noc3ncnc(NCCc4ccccc4)c23)cc1
-17%	CC(C)C[C@H]1CN=C(Nc2ccccc2)N1CC1CCC(C)CC1 (some centres undefined)
0%	Cc1ccc(C(=O)N/C(=C\c2ccccc2)C(=O)NCc2ccncc2)cc1
12%	CC(C)c1ccc(NC(=O)c2csnn2)cc1

# An excerpt of these results, with tabs.
canonical_smiles	VDR inh
COc1ccc(Cn2c(SCC(=O)N(C)Cc3ccccc3)nc3ccccc32)cc1	19%
CCCOC(=O)c1cccc(Nc2nc(C(=O)OCC)nc3ccccc23)c1	5%
CC(C)Oc1ccc(CNC(=O)CN2C(=O)CCn3nc(-c4cn(C)c5ccccc45)cc32)cc1	19%
Nc1nnnn1CC(=O)N/N=C/c1cc([N+](=O)[O-])ccc1O	-16%
N#CC1(NC(=O)CN2C(=O)NC3(CCCCCC3)C2=O)CCCCC1	8%
CCOC(=O)c1[nH]c2ccccc2c1NC(=O)CC(C)(C)C	-6%
COc1ccc(N2CCN(C(=O)c3ccc(NS(=O)(=O)c4ccc(F)cc4)cc3)CC2)cc1	-10%
O=C(Nc1ccccc1)c1cc(N2CCOCC2)nc2ccccc12	7%
Cc1cc(Cl)ccc1OC(C)C(=O)NCCCn1ccnc1 (centres undefined)	-3%
O=C(c1cc2ccccc2oc1=O)N1CCN(c2ccc(Cl)cc2)CC1	-14%
COc1cccc(NC(=O)CSc2nccn(-c3ccc4c(c3)OCCO4)c2=O)c1	-21%
COc1ccc(C(=O)OCC(=O)NCc2ccco2)cc1OC	5%
CS(=O)(=O)N1CCC2(CCCN(Cc3ccc(C#N)cc3)C2)CC1	3%
OCCCNC(c1ccccc1)c1ccc(O)cc1 (centres undefined)	9%
CN=C1SC(C(=O)Nc2ccccc2Cl)CC(=O)N1c1ccc(OC(F)(F)Cl)cc1 (centres undefined)	15%
CC(=O)N/N=C/c1ccc(OCCOc2ccc(Br)cc2)cc1	-13%
COc1cc2c(cc1OC)C(COc1ccccc1OC)N(C(=O)C(C)(C)C)CC2 (centres undefined)	0%
Cc1nc2ccccc2nc1SCC(=O)c1ccccc1	-4%
Fc1ccc(-c2noc3ncnc(NCCc4ccccc4)c23)cc1	1%
CC(C)C[C@H]1CN=C(Nc2ccccc2)N1CC1CCC(C)CC1 (some centres undefined)	-17%
Cc1ccc(C(=O)N/C(=C\c2ccccc2)C(=O)NCc2ccncc2)cc1	0%
CC(C)c1ccc(NC(=O)c2csnn2)cc1	12%

# (more compounds)
VDR inh	structure
-18%	CCCCN1C(=O)CN(CCc2ccccc2)C(=O)C1c1ccc(OC)cc1 (centres undefined)
-14%	COc1ccc(OC)c(NC(=O)NNC(=O)CCCOc2ccc(Cl)cc2C)c1
-10%	O=C(COc1ccccc1)N(Cc1ccco1)C1CCS(=O)(=O)C1 (centres undefined)
-5%	OC(COc1ccc2c(c1)CCC2)CN1CCN(c2cccc(Cl)c2)CC1 (centres undefined)
11%	CCc1ccc(NC(=O)CN2C(=O)C3(SCC(=O)N3c3ccc(F)c(F)c3)c3ccccc32)cc1 (centres undefined)
-9%	CCN(CC)c1ccc(/C=C2\C(=N)N3N=C(CC(=O)N4CCOCC4)SC3=NC2=O)cc1
-4%	COc1ccc(/C=C/c2nc3ccccc3n2Cc2ccccc2OC)cc1
11%	COC(=O)c1cc(NC(=O)c2cc(-c3ccccc3Cl)oc2C(F)(F)F)ccc1N1CCOCC1
6%	OCC1O[C@H](OC2C(CO)O[C@@](O)(CO)C2O)C(O)C(O)C1O (some centres undefined)
0%	CCOC(=O)C(CC)Sc1ncnc2c1nnn2-c1ccc(F)cc1 (centres undefined)
-8%	Cc1csc(NC(=O)CSc2ccc(-c3ccccc3)nn2)n1
4%	CCCCn1c(N)c(N(CCOC)C(=O)C2CCN(S(=O)(=O)c3ccc(C)cc3C)CC2)c(=O)[nH]c1=O
-5%	CCCCNC(=O)CCC1N=C2c3ccccc3N=C(SCC(=O)NCCc3ccc(OC)c(OC)c3)N2C1=O (centres undefined)
-7%	COc1ccc(N(CC(=O)Nc2cccc(C(F)(F)F)c2)S(=O)(=O)c2c(C)[nH]c(=O)[nH]c2=O)cc1
-21%	COc1ccc(C2CC(c3ccccc3OC(=O)/C=C/c3ccccc3)=NN2C(C)=O)cc1 (centres undefined)
-5%	O=C(O)c1ccc(-n2nnnc2SCc2ccccc2F)cc1
1%	COc1ccc(/C=C2\SC(=S)N(CCC(=O)N3CCCCC3CCO)C2=O)cc1 (centres undefined)
-6%	COc1cccc(C(=O)Nc2cccc(-c3cn4c(C)csc4n3)c2)c1OC
-29%	Cc1ccc(C)c(NC(=O)C(Sc2nc3ccccc3c(=O)n2CC(C)C)c2ccccc2)c1 (centres undefined)
-2%	Cc1ccc(NC(=O)c2ccc(NC(=O)C3CCCCC3C(=O)O)cc2)cc1 (centres undefined)
13%	COc1cccc(NC(=O)CN(C)C(=O)Cc2ccc(Cl)cc2Cl)c1
11%	O=C(c1ccccc1)N(Cc1nc2ccccc2c(=O)[nH]1)C1CCCCC1
-14%	Cc1cc(N2CCCCC2)nc(N2CCCCC2)n1
-11%	CCOc1ccc(NC(=O)CN(C)C(=O)CSCc2ccc(C)cc2)cc1OCC
15%	C(#Cc1ccccc1)C[N+]1(CC#Cc2ccccc2)CCCCC1
21%	COc1ccc(NC(=O)CSc2nccn2Cc2ccccc2)c(OC)c1
14%	Cc1noc(/C=C/c2ccccc2F)c1S(=O)(=O)N1CCC(C(=O)NCc2ccco2)CC1
-9%	COC(=O)c1ccc(/C=N/NC(=O)C(=O)NCC2CCCO2)cc1 (centres undefined)

# Screening results: PubChem, National Center for Advancing Translational Sciences (NCATS)
